Screening results (PubChem BioAssay)
gsp ag = agonists of gsp mutant (McCune-Albright syndrome) | gsp mutant cells, cAMP HTRF, 30 min; control for the full effect not named in the record | Potency, µM (top dose mostly 76.9 µM), without a hit: top-dose activation (cAMP increase), usual class: activators | hit rate 0.13% among 340,000 | AID 624287; active = well fitted activation curve with a large enough effect; inconclusive = small, poorly fitted or top-dose-only effect, or another doubt; inactive = no such curve, though single readings can be large or run the other way; cell line not stated here;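 further: phosphodiesterase inhibitor Ro 20-1724 added with compounds to block cAMP breakdown; potency means the concentration at half of the fitted maximal effect; nearly all actives have a fitted effect of over 60% in size; about a fifth of the inactives were tested at one dose only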
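Cells stably selected in G418 were plated at 2000/well, grown 16-24 hr, then given compounds in DMSO with the PDE inhibitor […] (300 uM solution added) for 30 min at 37C; cAMP was read by HTRF.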
ClpP mod = qHTS Assay for Activators of ClpP; ATP-dependent Clp protease proteolytic subunit (Bacillus subtilis (strain 168)), P80244; purified B. subtilis ClpP, FRET peptide cleavage, 20 min; Potency, µM (highest dose often 57.5 µM), inactives show top-dose activity change, negative = active; hit rate 1.9% among 340,000; AID 651965, 2013; active = well fitted falling curve with a large enough effect; inconclusive = small, poorly fitted or top-dose-only effect; inactive = no such curve, though single readings can be large or run the other way; further: potency means the concentration at half of the fitted maximal effect; the source files actives as falling curves though it sought activators and does not explain the sign; nearly all actives have a fitted effect of over 65% in size; many hits overshoot -100%
Target sequence (P80244 whole entry, looked up): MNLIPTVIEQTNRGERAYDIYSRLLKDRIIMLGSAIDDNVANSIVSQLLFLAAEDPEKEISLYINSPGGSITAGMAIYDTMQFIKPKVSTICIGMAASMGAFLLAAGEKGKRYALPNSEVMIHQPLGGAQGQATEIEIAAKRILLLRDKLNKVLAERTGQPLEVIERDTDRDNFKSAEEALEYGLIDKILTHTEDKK
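FRET quenching reversal measured ClpP activation: 10 microg/mL B. subtilis ClpP at pH 8 with the FRET-FV decapeptide, read at 430 nm after 320 nm excitation. The 20-min minus 0-min signal was scaled between DMSO/no-enzyme wells and ADEP (5.8 microM final).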
Menin MLL FP FL = menin-MLL binding inhibition, fluorescein peptide. FP activity change, % at 61.4 µM. Fluorescence polarization, fluorescein-MLL peptide displacement from menin. 290,000 tested, under 10 active; inconclusive = falling polarisation curve, or a change in total fluorescence; inactive = total fluorescence flat and polarisation flat or rising; no compound was filed as active; the % refers to the polarisation; negative = inhibition;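 further: % of control where 0% means no effect; inhibitors lower the polarisation; unlabelled MLL peptide was the positive control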
TRPV1 potentiator = potentiators of human vanilloid receptor 1 (TRPV1). Q8NER1. TRPV1-expressing cells, Fluo-8 calcium influx, capsaicin EC20 potentiation; host cell line not named in the record; control for the full effect not named in the record. potentiation, % at 8.33 µM. hit rate 0.02% among 320,000. AID 540277; active means potentiation above 80%; inconclusive means 30% to 80%; inactive means below 30%; further: 0% is about no effect
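TRPV1-expressing cells were cultured overnight at 35.5C and loaded with Fluo-8 calcium dye for 40 to 90 min at room temperature. After a 10 s baseline, compound was added and calcium influx was read kinetically for 3 min (ex 480/em 520 nm).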
gsp antag = antagonizes gsp, the McCune-Albright syndrome mutation; gsp-mutant cells, cAMP HTRF, 30 min; control for the full effect not named in the record; AID 624288; Potency, µM (titrated, usually from 76.9 µM), inactives show at the highest dose activity change, negative = inhibition, usual class: inhibitors; hit rate 0.4% among 340,000; active = falling curve of any shape with a large fitted effect; inconclusive = falling curve, mostly with a smaller effect; inactive = flat or rising curve; cell line not stated here;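 further: intracellular cAMP measured with PDE inhibitor Ro 20-1724 present during compound exposure; potency means the concentration at half of the fitted maximal effect; on the % scale 0 is the no-effect control and ±100 the full control effect; nearly all actives have a fitted effect of over 65% in size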
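Cells, 2000/well, grown 16–24 h in DMEM 10% FBS with 0.5 mg/ml G418, then compounds plus […] (300 uM addition stock), 30 min at 37C. cAMP read by HTRF (cAMP-d2 and anti-cAMP antibody-K in lysis buffer) after 30 min RT.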
Sfp inh = inhibitors of Bacillus subtilis Sfp phosphopantetheinyl transferase; Q9F4F7; Biochemical Sfp PPTase activity, qHTS; Potency, µM, without a hit: max response, negative = inhibition, hits mostly inhibitors; hit rate 3.5% among 310,000; active means well fitted inhibition curve with a large enough effect; inconclusive means small, poorly fitted or top-dose-only effect, or another doubt; inactive means no such curve, though single readings can be large or run the other way;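 further: the enzyme is Sfp with the accession as filed and its product quenches rhodamine fluorescence; potency means the concentration at half of the fitted maximal effect; 0% = enzyme reaction without inhibitor and -100% = no enzyme wells; top concentration of the series not given in the record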
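Step 1, compound plus 15 nM Sfp-PPTase, 15 min, room temperature. Step 2, add rhodamine-CoA (5 uM) and BHQ-2-YbbR (12.5 uM). Step 3, read 525/598 nm fluorescence at 0 and 30 min.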
D2 PAM = potentiates the human D2 dopamine receptor allosterically; DiscoveRx D2 beta-arrestin cells, luminescence, 90 min; 100% = 57 uM dopamine signal; potentiation, % (concentration not given with the values); hit rate 0.23% among 360,000; AID 624464; active = potentiation of 50% or more; inconclusive = 30% to 50%; inactive = 30% or less;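 further: compound concentration not given in the record; tested on top of an EC20 dose of dopamine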
Target sequence (P14416 whole entry, looked up): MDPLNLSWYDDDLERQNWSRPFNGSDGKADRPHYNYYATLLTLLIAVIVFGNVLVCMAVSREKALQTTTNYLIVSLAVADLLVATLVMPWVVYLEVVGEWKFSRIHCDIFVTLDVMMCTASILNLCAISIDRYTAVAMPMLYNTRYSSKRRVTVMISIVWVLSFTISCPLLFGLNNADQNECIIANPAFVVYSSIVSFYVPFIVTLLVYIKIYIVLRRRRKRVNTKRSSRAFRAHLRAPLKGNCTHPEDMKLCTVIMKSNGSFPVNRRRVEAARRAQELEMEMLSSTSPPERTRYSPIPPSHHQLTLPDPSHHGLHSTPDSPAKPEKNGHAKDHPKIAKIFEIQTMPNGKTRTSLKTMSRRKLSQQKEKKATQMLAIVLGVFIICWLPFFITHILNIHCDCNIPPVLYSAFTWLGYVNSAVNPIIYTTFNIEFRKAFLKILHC
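PathHunter D2 cells, attached overnight at 37 deg C, received compound in DMSO plus dopamine at EC20 (50 nM final) for 90 min at 37 deg C. Beta-arrestin recruitment was read as luminescence after 1 h with detection reagent at ambient temperature.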
Active calls of the source: *; ? = inconclusive; . = no result given; [ ] = another dose, or the depositor's remark. Compounds as they come; any-hit rate near 5.1%.

SMILES	gsp ag	ClpP mod	Menin MLL FP FL	TRPV1 potentiator	gsp antag	Sfp inh	D2 PAM
Cc1cc(C)nc(SCCN(C)C)n1	-53.9%[inhibitor]	-0.3%	5.3	-0.7	5.8%	0.5%	-6.9
CCCC(=O)NNC(=O)CCC(=O)NCc1ccccc1	6.0%	-0.8%	-8.4	-13.0	10.3%	7.1%	-12.4
O=S(=O)(c1ccc(-n2cnnn2)cc1)N1CCC(N2CCCCC2)CC1	21.5%	-1.5%	0.9	-7.8	7.7%	10.7%	-8.5
CC(NC(=O)c1cc2sccc2n1C)c1ccc2c(c1)OCCO2 (stereo not given)	-6.3%	-0.1%	0.0	-0.7	-8.4%	-10.6%	-13.9
CCCC1Oc2ccccc2C(=O)N(CC(=O)c2ccc3c(c2)OCCO3)C1=O (stereo not given)	?	-1.1%	.	6.7	-18.1%	11.5%	-2.1
COc1ccc2cc3c(N)nn(C(=O)Cc4ccc(Cl)cc4)c3nc2c1	4.6%	-15.6%	5.3	.	4.1%	?	-3.2
Cc1oc(-c2ccccc2F)nc1CS(=O)(=O)CC(=O)NCCCN(C)C1CCCCC1	40.2%	-8.1%	2.0	-1.0	1.5%	4.2%	-5.4
Cc1onc(-c2c(F)cccc2Cl)c1C(=O)OCC(=O)NC(N)=O	12.1%[15.4 µM]	.	-0.2	5.9	-23.5%	-19.5%	-2.9
O=C(C1Cc2ccccc2CN1S(=O)(=O)c1cccs1)N1CCCCCC1 (stereo not given)	-81.9%[inhibitor]	-2.3%	2.2	-6.1	-14.8%	-0.3%	13.4
Cc1cc(C(=O)N2CCC(C(F)(F)F)n3nccc32)on1 (stereo not given)	-0.4%	2.0%	-0.5	7.5	1.1%[15.4 µM]	4.5%	-24.0
CCOC(=O)c1ccc(NC(=O)CN2C(=O)CNC2=O)cc1	-9.8%	0.0%	-4.0	-1.5	12.4%	9.0%	-14.6
CCC1(CC)Cc2ccccc2-c2nc(NCCCO)[nH]c(=O)c21	0.4%[15.4 µM]	.	-3.5	-0.7	3.5%	3.3%	-6.1
CCc1sc(-c2ccccc2)nc1C(=O)OC	-0.7%	-12.2%	1.5	.	5.4%	7.8%	-13.5
CSc1ccc(Cl)c(C(=O)OCC(=O)NC2CC2)c1	-11.7%	-7.5%	2.4	-13.7	-6.7%	21.6%	-4.3
CC1CCC/C(=C\Nc2ccc3c(c2)OCO3)C1=O (stereo not given)	16.5%	-0.9%	-0.5	-11.1	-4.6%	?	16.1
C=CCc1c(C)nc(SC)nc1Nc1ccc(C(=O)O)cc1	-3.8%	-2.7%	-0.5	7.5	-15.8%	16.7%	-10.2
Cc1cc(C)cc(NC(=O)C2CCN(S(=O)(=O)c3ccc4[nH]c(=O)ccc4c3)CC2)c1	16.2%	-8.2%	-1.1	-3.5	0.7%	5.2%	-9.2
CCOc1cc(C(=O)NC(=S)Nc2ccc(Cl)c(C(=O)O)c2)cc(OCC)c1OCC	8.2%[15.4 µM]	.	0.4	5.0	-15.7%	?	-8.5
COc1ccc2nc(NCCNC(=S)NCCCN3CCOCC3)c(C#N)cc2c1	10.1%	-13.8%	?	3.0	-0.3%	-29.5%	-2.5
CC1Cc2ccccc2N1C(=O)CN1C(=O)NC2(CCCCC2)C1=O (stereo not given)	-8.3%	1.8%	.	-4.8	4.9%	.	-1.4
Cn1c(NCc2ccco2)nc2c1c(=O)n(Cc1ccc(Cl)cc1)c(=O)n2C	14.2%	-3.0%	1.7	-2.6	-3.5%[15.4 µM]	-22.4%	-10.4
CCCCCC[n+]1c(-c2ccccc2)csc1Nc1ccccc1	16.3%	-1.6%	-3.2	1.1	8.0%	-0.2%	2.8
CS(=O)(=O)C1=NSC2=NC(=O)/C(=C\c3ccc(OS(=O)(=O)c4ccccc4)cc3)C(=N)N21	-14.1%	-0.7%	.	-3.6	-0.3%	-5.8%	-4.7
O=C(O)c1ccc2c3n(nc2c1)-c1ccc(Cl)cc1CO3	.	-18.5%	1.3	?	-13.6%	3.8%	-18.6
CCOC(=O)C1C(=O)NC(N2CCN(c3ccccc3)CC2)=NC1c1ccco1 (stereo not given)	-5.8%	-0.1%	6.6	0.6	12.7%	15.8%	-3.0
COC(=O)C1CC(C(=O)OC)C2C(C(=O)OC)CC(C(=O)OC)C12 (stereo not given)	-38.4%[inhibitor]	.	.	.	6.4%	.	-3.0
Oc1ccccc1N1CCN(c2ccc3ccccc3n2)CC1	22.9%[15.4 µM]	.	-3.5	?	-4.0%	7.6%	-5.3
O=C(Cc1ccc(Br)cc1)Nc1ncc([N+](=O)[O-])s1	16.7%	-0.5%	15.6	-7.8	-6.8%	-28.8%	-5.2
NS(=O)(=O)c1c(Sc2ccccc2C(=O)O)ccc2ccccc12	24.2%	0.4%	-3.3	4.2	3.5%	18.6%	7.4
CCOC(=O)Cc1csc(SCC(=O)NC2CCC(C)CC2)n1 (stereo not given)	2.7%	-3.5%	.	5.1	-3.5%	.	11.4
CNc1ccccc1C(C)(C)c1cc(-c2cc(C)cc(C)c2)no1	15.0%	-0.1%	1.4	2.0	-7.0%	-16.1%	2.8
CN(C(=O)COC(=O)/C=C/c1cccs1)c1c(N)n(Cc2ccccc2)c(=O)[nH]c1=O	29.3%[15.4 µM]	.	.	-23.6	3.2%	.	-68.4
O=C(COc1ccc2ccccc2c1)N1CCN(C(=O)c2ccco2)CC1	11.7%[15.4 µM]	.	0.4	-9.3	-15.6%	-11.3%	-1.3
CC(=O)c1cc(-c2ccccc2)n(CCC(=O)NC2CCCC2)c1C	-1.7%[15.4 µM]	.	-3.7	-30.7	-11.4%	-9.0%	20.8
CCOc1cc(N2CCOCC2)c(OCC)cc1NC(=O)c1ccc(=O)n(Cc2ccccc2)n1	.	.	-0.7	8.6	.	9.8%	.
COc1ccccc1NCC(=O)N/N=C/c1c(O)ccc2ccccc12	-0.7%	14.8%	?	10.4	-4.2%	17.7%	-10.3
CCc1cc(=O)oc2cc3occ(-c4ccc(OC)c(F)c4)c3cc12	-5.7%	?	-0.1	9.6	23.8%	20µM*	13.3
COc1ccccc1C(=O)Nc1ccccc1C(=O)N1C(C)CCCC1C (stereo not given)	0.0%	.	-4.6	-6.4	-12.6%	8.6%	-5.8
CCC(C)[C@H](NC(=O)C1(c2ccccc2)CCN(C(=O)OC(C)(C)C)CC1)C(=O)N[C@@H](C(=O)O)c1ccccc1 (stereo not given in full)	.	0.9%	-5.5	14.2	2.7%	18.1%	-7.7
CCn1cc(S(=O)(=O)N2CCN(Cc3ccc(F)cc3)CC2)cn1	-12.7%[15.4 µM]	.	-3.2	-35.4	10.0%	14.2%	-0.4

Random excerpt: 4 entries already listed.
SMILES	gsp ag	ClpP mod	Menin MLL FP FL	TRPV1 potentiator	gsp antag	Sfp inh	D2 PAM
CC(=O)c1cc(-c2ccccc2)n(CCC(=O)NC2CCCC2)c1C	-1.7%[15.4 µM]	.	-3.7	-30.7	-11.4%	-9.0%	20.8
CCOC(=O)Cc1csc(SCC(=O)NC2CCC(C)CC2)n1 (stereo not given)	2.7%	-3.5%	.	5.1	-3.5%	.	11.4
O=C(Cc1ccc(Br)cc1)Nc1ncc([N+](=O)[O-])s1	16.7%	-0.5%	15.6	-7.8	-6.8%	-28.8%	-5.2
O=C(O)c1ccc2c3n(nc2c1)-c1ccc(Cl)cc1CO3	.	-18.5%	1.3	?	-13.6%	3.8%	-18.6

Following part:
SMILES	gsp ag	ClpP mod	Menin MLL FP FL	TRPV1 potentiator	gsp antag	Sfp inh	D2 PAM
CCOCCc1nnc(NC(=O)COC)s1	-22.1%	0.2%	-0.6	-4.5	11.7%	-18.3%	-9.1
Clc1ccc2nnnc(-c3ccccc3)c2c1	1.0%[15.4 µM]	0.5%	-0.5	1.5	-9.1%	6.7%	-0.4
COC(=O)C1CCN(S(=O)(=O)c2ccc(Br)s2)CC1	-2.8%	-4.8%	.	11.9	0.0%	.	-2.7
CC(C)=CCC(C)(C)/C=N/NC(N)=O	1.6%[15.4 µM]	-0.4%	0.2	-2.9	9.6%	10.5%	-5.5
O=C1C2C3C=CC(C3)C2C(=O)N1/N=C/c1cc(Br)cc([N+](=O)[O-])c1O (stereo not given)	2.5%	0.8%	27.6	6.0	-17.8%	20.3%	-53.2
CCCCc1ccc(-n2c(Cc3cccs3)n[nH]c2=S)cc1	15.8%[15.4 µM]	.	1.2	-3.4	-26.1%	-9.7%	-7.2
CC(C)CC(C(=O)Nc1ccc2c(c1)OCCO2)N1C(=O)c2ccccc2C1=O (stereo not given)	-0.5%	2.1%	1.5	-10.4	1.7%	-0.2%	-7.0
O=C(c1ccco1)N1CCN(C(=O)c2cc(-c3ccccc3)nc3ccccc23)CC1	28.9%	-7.5%	2.2	15.2	-10.2%	0.0%	9.0
CCOC(=O)N1CCN(c2c(N3CCN(c4ccccc4OC)CC3)c(=O)c2=O)CC1	-29.8%	0.0%	-0.3	15.2	-1.3%	13.9%	0.8
COCc1ccc(C(=O)N2CCN(CC(=O)N3CCCC3)CC2)cc1	?	-0.1%	.	-5.1	15.7%	.	-11.0
Cc1cccc(O)c1C	.	-3.2%	.	.	8.1%	.	-26.1
CC(Oc1ccc(F)cc1)C(=O)N(Cc1ccccc1)c1c(N)n(Cc2ccccc2)c(=O)[nH]c1=O (stereo not given)	-49.3%[inhibitor]	?	.	-10.3	-9.0%	.	18.1
COc1ccccc1NS(=O)(=O)c1ccc(C)c(C(=O)NCc2cccnc2)c1	9.4%	0.3%	.	28.3	-40.9%	.	-0.6
Cc1ccc(-c2nc(Nc3cccc(C)c3)sc2CC(=O)O)cc1	-28.4%	-3.8%	5.9	9.4	-12.4%	20µM*	1.9

Three compounds already listed, ordered by the number in gsp ag, falling:
| Compound | gsp ag |
| --- | --- |
| Cn1c(NCc2ccco2)nc2c1c(=O)n(Cc1ccc(Cl)cc1)c(=O)n2C | 14.2% |
| CCc1sc(-c2ccccc2)nc1C(=O)OC | -0.7% |
| CCOCCc1nnc(NC(=O)COC)s1 | -22.1% |
